FXIIa single: inhibitors of human coagulation factor XIIa; P00748; purified human FXIIa, AMC substrate fluorescence, 2 h; inhibition, % at 10 µM; actives 0.2% (n = 33,000); AID 701; in the data active means inhibition above about 30%;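 further: 0% = enzyme with vehicle only and 100% = no enzyme blank; many of its hits are not listed in these tables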
* = called active by the depositor. Only part of the results is shown, and most or all hits are left out here.

SMILES | FXIIa single
Cc1ccc(CNCc2cc3c(C(C)(C)C)nn(-c4ccccc4)c3[nH]c2=O)cc1 | 10.8
COc1ccc(Cn2c(C)cc3c(c2=O)C(c2cccs2)C(C#N)=C(N)O3)cc1OC (stereo unspecified) | 2.3
COc1ccc(N/C(N)=N/c2nc(CSc3ccc(Cl)cc3)cc(=O)[nH]2)cc1 | -6.1
CSc1nc(-c2ccccc2)nn1S(=O)(=O)c1ccccc1 | -1.3
Cc1cc(C)c2nc(NC(=O)C3CCCO3)sc2c1 (stereo unspecified) | 6.8
CCCCCSc1nc(O)cc(=O)[nH]1 | 6.7
Cc1ccc(-c2nn(-c3ccccc3)c3[nH]c(=O)c(CNCc4ccccc4)cc23)cc1 | 2.0
O=C(CCc1ccccc1)n1nc(-c2ccco2)nc1SCc1ccccc1 | -8.9
CCOC(=O)N1CCN(C(=O)C2CCCCC2)CC1 | 2.7
CC(C)c1nnc(NC(=O)CCC(=O)NCc2cccs2)s1 | 4.3
O=C(CSc1nnc(-c2ccco2)n1-c1ccccc1)NCc1ccco1 | 7.1
Cc1nc(N)nc(-c2ccccc2O)n1 | 9.5

A different layout for part of the listing above.
mol: Cc1nc(N)nc(-c2ccccc2O)n1
  FXIIa single: 9.5

mol: Cc1ccc(CNCc2cc3c(C(C)(C)C)nn(-c4ccccc4)c3[nH]c2=O)cc1
  FXIIa single: 10.8

mol: Cc1cc(C)c2nc(NC(=O)C3CCCO3)sc2c1 (stereo unspecified)
  FXIIa single: 6.8

mol: CC(C)c1nnc(NC(=O)CCC(=O)NCc2cccs2)s1
  FXIIa single: 4.3
